Screens as filed in PubChem.
RanGTP-Impb inh: disruptors of Ran-importin-beta complex formation – biochemical, FRET, CFP-Ran, YFP-importin-beta, homogeneous, primary screen; inhibition, % (no concentration beside the values); cell-free CFP-Ran/YFP-importin-beta FRET ratio; AID 2216; actives 1.1% (n = 300,000);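 active = most replicates above 15%; inconclusive = exactly half above 15%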;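 note: 0% = DMSO wells and 100% = Ran loaded with GDP instead of GTP; wells of about 40 µL received 100 nL stock; the first replicate is given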
Vif TR-FRET: HIV-1 Vif–A3G interaction blockers – biochemical, TR-FRET, GST-Vif 1-94, biotin-A3G peptide, dose response retest, primary screen (AID 1117319); actives 0.57% (n = 260,000); one-dose inhibition, %; IC50 in µM for titrated hits; TR-FRET GST-Vif / biotin-A3G peptide binding; higher % means a stronger effect; test concentration not given here; strong numbers were not always called active;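 active = above the screen mean plus three standard deviations and confirmed in dose response; inconclusive = results disagree or hit not tested in dose response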;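 note: Vif residues 1-94 fused to GST binding biotinylated APOBEC3G peptide 110-148; 0% = full assay without inhibitor and 100% = GST in place of GST-Vif; retest series ran down from 100 µM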
ALR inh: inhibitors of human sulfhydryl oxidase ALR; P55789; actives 3.8% (n = 290,000); inhibition, % (no concentration beside the values); purified ALR, DTT oxidation, H2O2 HRP-luminol luminescence;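 active = mean and each replicate at 75% or more; inconclusive = only one of the two met; inactive = neither met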;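 note: stock transfer was 7.5 nL into about 7.5 µL; 0% = neutral wells and 100% = wells with inactivated enzyme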
B2AR ag: human beta-2 adrenergic receptor agonism by FAP; P07550; Am2.2-beta2AR cells, FAP receptor internalization, flow cytometry; reference of the scale not given here; response, % (test concentration not listed); actives 0.43% (n = 340,000); AID 504454;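 active = response above a set limit, near 3 SD of response in nonfluorescent compounds, cut at about 42% in these data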;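 note: stock transfer was 100 nL into about 11 µL; a reference agonist was the positive control; negative values mostly stem from fluorescent compounds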
HNF4A DNA FP: change in binding of human HNF4 alpha to DNA; P41235; HNF4a-FITC DNA binding, fluorescence polarization, 1 h; activity change, % at 10 µM; actives 0.3% (n = 360,000); AID 1224865; in the data active = activity change above about 30%, passing the limit was not always enough;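 note: controls were the assay level and a saturating level of protein; the project sought stronger binding though the title names inhibitors; some compounds called inactive have numbers as strong as hits; positive values seem to mean higher polarization but the record does not say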
LANA-H2A inh: blocks KSHV LANA binding to histone H2A/H2B; actives 0.6% (n = 320,000); inhibition, % (test concentration not listed); Q9QR71; AID 2629; cell-free LANA-H2A/H2B peptide, fluorescence polarization; in the data active = inhibition mostly above about 10%, no sharp cut-off; inactive = mostly below about 6.7%;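 note: stock transfer was 7.5 nL into about 10 µL; 0% = median of vehicle wells and 100% = median of positive control wells; one replicate is shown; the record names a cut of 25% in any replicate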
Target sequence (Q9QR71 whole entry, looked up): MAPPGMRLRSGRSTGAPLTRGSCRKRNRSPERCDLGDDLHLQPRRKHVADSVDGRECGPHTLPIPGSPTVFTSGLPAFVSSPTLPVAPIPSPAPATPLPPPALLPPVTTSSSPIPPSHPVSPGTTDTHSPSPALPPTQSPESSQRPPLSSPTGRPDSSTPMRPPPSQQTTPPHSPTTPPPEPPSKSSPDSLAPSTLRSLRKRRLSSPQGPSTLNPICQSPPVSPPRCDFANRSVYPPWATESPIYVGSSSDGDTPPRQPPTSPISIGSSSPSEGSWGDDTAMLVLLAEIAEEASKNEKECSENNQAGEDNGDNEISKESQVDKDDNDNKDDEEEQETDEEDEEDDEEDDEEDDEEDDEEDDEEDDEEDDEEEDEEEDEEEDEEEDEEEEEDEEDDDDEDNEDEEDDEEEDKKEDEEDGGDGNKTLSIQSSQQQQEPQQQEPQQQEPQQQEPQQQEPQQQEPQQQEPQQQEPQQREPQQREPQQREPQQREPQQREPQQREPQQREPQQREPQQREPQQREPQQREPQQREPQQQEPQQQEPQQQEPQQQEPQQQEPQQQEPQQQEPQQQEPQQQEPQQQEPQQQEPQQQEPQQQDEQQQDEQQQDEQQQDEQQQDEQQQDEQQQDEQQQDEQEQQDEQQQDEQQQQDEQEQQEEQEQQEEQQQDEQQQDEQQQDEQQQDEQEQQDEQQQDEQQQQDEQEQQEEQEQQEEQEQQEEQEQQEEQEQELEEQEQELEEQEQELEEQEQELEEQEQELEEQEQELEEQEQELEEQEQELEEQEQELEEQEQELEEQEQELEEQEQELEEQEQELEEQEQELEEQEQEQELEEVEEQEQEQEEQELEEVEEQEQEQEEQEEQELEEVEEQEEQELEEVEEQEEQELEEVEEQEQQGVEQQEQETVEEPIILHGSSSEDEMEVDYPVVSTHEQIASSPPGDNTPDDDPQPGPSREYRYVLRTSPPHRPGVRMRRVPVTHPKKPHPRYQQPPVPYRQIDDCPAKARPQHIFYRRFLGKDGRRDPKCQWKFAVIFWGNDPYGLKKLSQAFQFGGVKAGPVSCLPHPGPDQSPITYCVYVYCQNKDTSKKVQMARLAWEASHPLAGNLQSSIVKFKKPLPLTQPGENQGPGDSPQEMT
Calb FLC: C. albicans growth modulation with fluconazole | C. albicans CaCi-2 (fluconazole-resistant clinical isolate) + fluconazole, Alamar Blue growth, 48 h | growth inhibition, % (test concentration not listed) | actives 0.57% (n = 300,000);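 active = most replicates above 75%; inconclusive = exactly half above 75%; inactive = most below 75%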;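 note: all wells also contain fluconazole at 8 µg/ml as a sub-toxic cotreatment; 0% = median of DMSO wells and 100% = median of geldanamycin control wells; wells of about 8 µL received 7.5 nL stock; the first replicate is given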
* marks the source's active call; other numbers are inactive results; ? = inconclusive; · = no result given; & = joins results of further samples. An excerpt. The share of hits here may be higher or lower than overall.

SMILES	RanGTP-Impb inh	Vif TR-FRET	ALR inh	B2AR ag	HNF4A DNA FP	LANA-H2A inh	Calb FLC
COc1cccc(-c2nn(CCC#N)cc2C(=O)Nc2ccccc2Cl)c1	2.8	·	5	0	-0.1	2.3	-3
CC(C)CNC(=O)c1c(N)n(Cc2ccco2)c2nc3ccccc3nc12	-1.2	?	37	-7	3.5	-1.9	5
Cc1ccc(-n2c(O)c(C=Nc3ccc(S(N)(=O)=O)cc3)c(=O)[nH]c2=O)cc1	0.4	-10%	-2	2	2.2	3.4	-10
CCN1CCN(c2ccc(N)c(C)c2)CC1	0.4	?	96*	2	2.6	1.0	10
COC(=O)C1=C(c2cc3ccccc3s2)C[C@@H]2CC[C@H]1N2C(=O)N1CCCCC1	-0.7	·	-17	-9	3.4	-1.1	-9
Cc1ccc(Sc2ccc(C=C3C(=O)N(C)C(=O)N(C)C3=O)o2)cc1	?	?	97*	10	-0.2	-0.7	0
CCOc1cc2c(cc1OCC)-n1cccc1C(c1cc(C)c(OC)cc1C)NC2 (configuration not stated)	-1.2	-3%	-3	11	0.0	0.9	32
c1ccc2c(c1)CC1CNCc3cccc(c31)S2 (configuration not stated)	3.6	11%	17	-2	1.4	3.6	-6
CN1CCc2c(C#N)c(Cl)nc(Cl)c2C1	6.9	·	-42	4	-3.4	0.5	1
CC(C)[C@]12CC(=O)[C@H](C)[C@H]1C2	·	·	-33	-4	-1.7	-0.4	·
CC(CC(C#N)(c1ccccc1)c1ccccc1)N1CCCCC1 (configuration not stated)	·	-6%	·	12	0.8	·	·
CCC(=NCCO)c1c(O)n(-c2ccccc2)c(=O)[nH]c1=O	0.4	-9%	-2	1	-0.8	-1.2	-13
C=CCN(CC=C)Cc1c[nH]c2ccccc12	0.5	?	-5	·	·	-2.5	-9
CC(C)(C)NC(=O)C1CC2CCCCC2CN1 (configuration not stated)	-3.9	-1%	-2	1	2.3	1.2	-12
O=c1[nH]c(O)c(/C=C2\C=Nc3ccc(OCc4ccccc4)cc32)c(=O)[nH]1	-8.5	·	-51	5	3.5	-8.1	2
CCOC(=O)c1ccc2c(c1)n(Cc1ccccc1)c(C)[n+]2CC	2.1	12%	0	1	1.2	1.5	-37
Cc1cccc(CCNCc2cc3ccc(C)cc3[nH]c2=O)c1	1.3	1%	-10	17	-3.2	2.5	-1
Cc1nc2ccccc2c(=O)n1-c1ccc(Cl)c(Cl)c1	2.5	-1%	19	1	-0.7	-1.3	5
COC(=O)c1ccc(CN2CCSC2=N)cc1	3.1	·	-5	-3	1.7	3.0	-3
COc1ccccc1N1CCN(Cc2ccccc2F)CC1	6.1	5%	44	1	-0.1	-0.4	8
COc1cc2c(cc1OC)C(C(=O)NCCC(C)C)C1CCCCN1C2=O (configuration not stated)	1.1	-6%	-5	-4	1.3	-7.9	9
Cc1ccccc1OCCCn1cc(C(=O)C(=O)N2CCOCC2)c2ccccc21	0.9	-11%	-36	2	1.5	0.8	-15
Cc1c2cnn(CC(=O)N3CCC4(CC3)OCCO4)c(=O)c2c(C)n1Cc1ccccc1Cl	-2.7	2%	-1	-3	2.1	-1.3	-26
Cc1[nH]c2ccc(OC(F)(F)F)cc2c1CCNCc1cccc([N+](=O)[O-])c1	0.1	·	-4	9	-4.0	3.7	16
C=C1[C@H]2CC[C@H]3[C@]4(C)C[C@H](O[C@@H]5OC(CO)[C@@H](OSOOO)[C@H](OS(=O)(=O)O)[C@H]5OC(=O)CC(C)C)C[C@@H](C(=O)O)[C@H]4CC[C@]3(C2)[C@H]1O (some centres not stated)	·	·	1	-3	2.0	1.6	·
Cc1cc(C=C2C(=O)NC(=S)NC2=O)c(C)n1-c1ccc2c(c1)OCO2	-2.1	17%	7	35	2.5	0.4	10
CCOC(=O)C1=C(N)OC2=C(C(=O)CCC2)C12C(=O)N(CC(N)=O)c1ccccc12 (configuration not stated)	?	-3%	-2	7	2.9	4.7	33
OCC#CC[N+]1(CC#Cc2ccccc2)CCCC1	-1.8	32%	-25	8	0.3	3.2	27
O=c1c2ccccc2nc(-c2ccccc2Cl)n1-c1ccc(O)cc1	-1.1	3%	-11	-30	5.0	6.1	0
CCN(CC)C(=O)c1ccc(NC(=O)c2ccc(N3CCCC3=O)cc2)cc1	·	19%	3	-1	1.0	0.2	·
O=c1c(C=NCCN2CCNCC2)c(O)n(C2CCCCC2)c(=O)n1C1CCCCC1	-1.0	8%	-4	8	-1.1	-0.8	18
CCC(COC(=O)NC)NC(=O)Oc1ccccc1 (configuration not stated)	5.1	?	-6	5	-2.6	4.3	-3
CC1=C(C(=O)Nc2ccccc2)S(=O)(=O)CCO1	-5.0	-3%	-8	-1	1.2	1.0	-1
CCOC(=O)[C@@H]1[C@H]2COc3ccc(Br)cc3[C@H]2N2C(=O)N(c3cccc(C)c3)C(=O)[C@]12C	·	·	-2	-9	6.3	4.4	·
COC(=O)C1=C(c2ccc(S(C)(=O)=O)cc2)C[C@@H]2CC[C@H]1N2C(=O)NCc1ccc(F)cc1	-0.2	·	·	4	0.2	-2.3	1
CN(C)c1ccc(C=C2C(=O)NC(=S)NC2=O)cc1[N+](=O)[O-]	·	27%	·	5	-2.0	0.9	-20
CCN(CC)CCN=Cc1c(O)n(CCc2ccccc2)c(=O)[nH]c1=O	1.0	8%	1	-2	26	-7.1	2
O=C1NC(=O)N(CCc2ccc(F)cc2)C(=O)/C1=C/C=C/c1ccccc1	-3.1	·	12	18	6.5	5.2	-5
COC(=O)c1ccccc1N=Cc1c(O)[nH]c(=O)[nH]c1=O	2.3	-3%	·	5	3.1	2.2	1
CC(C)(O)C(=O)Nc1ccc([N+](=O)[O-])c(C(F)(F)F)c1	·	·	-7	-1	2.2	20*	·
FC(F)(F)c1ccc(NC2=NCCCS2)cc1	0.9	-2%	·	2	0.4	-4.3	-23
CCCc1[nH]nc2c1C1(C(=O)N(CC(N)=O)c3ccccc31)C(C(=O)OC)=C(N)O2 (configuration not stated)	-0.1	14%	-1	-5	1.5	0.2	2
CCC(=NCc1cc(OC)cc(OC)c1)c1c(O)n(C2CCCCC2)c(=O)[nH]c1=O	0.0	7%	-4	2	2.6	4.4	-6
COC(=O)C1=C(c2ccccc2OCc2ccccc2)C[C@@H]2CC[C@H]1N2C(=O)NCCOc1ccc(OC)cc1	·	·	6	2	0.9	-2.6	·
CC(C)(C)NC(=S)/N=C(\N)N[N+](=O)[O-]	0.5	10%	0	-5	4.0	-3.5	37
CCOC(=O)C1C2c3ccccc3O[C@@]1(C)N=C1SCC(=O)N12 (some centres not stated)	1.7	0%	2	6	0.3	1.9	-2
C[C@@H]([C@@H](O)c1ccccc1)N(C)C(=O)Cc1ccccc1	-5.4	·	-1	5	-3.8	2.2	8
C[C@@H]1CC2(CCCC[N+]2(C)C)C[C@H]1C	-0.8	-7%	-3	1	-4.5	-0.7	7
CC(C)NS(=O)(=O)c1ccc(OCC(=O)N2CCN(Cc3ccc4c(c3)OCO4)CC2)c(Cl)c1	-3.3	1%	-24	3	2.2	2.7	19
CN(C)CCCN=Cc1c(O)n(CCc2ccccc2)c(=O)[nH]c1=O	-1.4	?	-8	-4	43*	-4.2	6
CCCCCc1nc2c(c(=O)c3ccccc3n2C)c(=O)n1C1CCCCCC1	-3.4	·	-3	8	7.9	5.6	37
CCOc1cc2[nH]c(=S)n(CCCC(=O)N3CCC4(CC3)OCCO4)c(=O)c2cc1OCC	3.5	-4%&-8%	49	-2	2.7	-0.9	0
O=C1NC(=O)C(=Cc2ccc(OCC(=O)N3CCOCC3)cc2)C(=O)N1	2.5	·	-1	4	-0.7	-2.5	0
COc1ccc(CN2CCNCC2)cc1	1.7	·	-4	4	6.4	2.4	2
O=c1[nH]c(=S)n(-c2ccccc2F)c(O)c1C=NCCN1CCNCC1	-3.6	7%	0	-3	6.6	2.8	4
Cc1ccc2[nH]c(C)c(CCNCc3ccco3)c2c1	-23	·	58	-3	-0.9	2.5	-4
Clc1ccc2c(c1)C(c1ccccc1Cl)=NCc1nnc(N3CCN(CCSc4ccccc4)CC3)n1-2	0.6	17%	-7	7	-2.5	-0.4	-6
COc1ccc(CC(C)NCCc2ccc(OC)c(OC)c2)cc1 (configuration not stated)	-1.2	-2%	-12	2	-0.8	-0.9	-18
COc1ccc(C2=CC(c3ccc(OC)c(OC)c3)c3c(c4ccccc4oc3=O)O2)cc1OC (configuration not stated)	-0.6	6%	·	6	-2.5	1.3	-3
COc1cc2c(ccc3c4cc(OC)c(OC)cc4c[n+](C)c23)cc1O	·	1%	·	-12	-18	·	·

An excerpt from above in order of length of the SMILES, highest first.
SMILES	RanGTP-Impb inh	Vif TR-FRET	ALR inh	B2AR ag	HNF4A DNA FP	LANA-H2A inh	Calb FLC
CCCc1[nH]nc2c1C1(C(=O)N(CC(N)=O)c3ccccc31)C(C(=O)OC)=C(N)O2 (configuration not stated)	-0.1	14%	-1	-5	1.5	0.2	2
CN(C)CCCN=Cc1c(O)n(CCc2ccccc2)c(=O)[nH]c1=O	-1.4	?	-8	-4	43*	-4.2	6
CCOC(=O)c1ccc2c(c1)n(Cc1ccccc1)c(C)[n+]2CC	2.1	12%	0	1	1.2	1.5	-37

(further entries)
SMILES	RanGTP-Impb inh	Vif TR-FRET	ALR inh	B2AR ag	HNF4A DNA FP	LANA-H2A inh	Calb FLC
C=CCn1c(O)c(C(CC)=Nc2cccc(C(=O)O)c2)c(=O)[nH]c1=O	-0.4	8%	-1	-1	-2.6	-5.5	4
CCCNC(=O)N1[C@H]2CC[C@@H]1C(C(=O)OC)=C(c1ccc(C(C)=O)cc1)C2	·	·	-19	1	-1.0	3.5	·
Cc1cc(O)c2c(c1)OC(C)(C)C1=C2CC(C)CC1 (configuration not stated)	-1.4	·	·	13	-2.5	0.7	-4
CCCCCSc1cc(OC)c(CCN)cc1OC	-1.0	?	0	-20	1.2	4.4	9
COc1ccc(CCn2c(O)c(C=NCCN3CCCCC3)c(=O)[nH]c2=O)cc1OC	3.9	-2%	-8	3	-0.7	1.9	-8
CCn1c(=O)n(CC)c2cc([N+](=O)[O-])c(N3CCNCC3)cc21	-4.8	·	·	-3	0.1	0.9	0
COc1ccc(NC(=O)N2C[C@@H]3C[C@@H](C2)c2cccc(=O)n2C3)cc1	-1.8	·	-6	4	7.7	0.3	1
COC(=O)C1=C(c2ccc(C(C)=O)cc2)C[C@@H]2CC[C@H]1N2C(=O)NCC1CC1	·	·	2	-3	3.5	0.4	·
Cc1c(/C=N/O)c2ccccc2n1C	0.1	18%	·	-9	-1.3	-0.9	5
c1ccc(CCN2CCC3(CC2)OCCO3)cc1	3.2	·	1	7	0.0	-0.5	0
O=C(O)COc1ccc(Cl)cc1Cl	11	·	·	8	1.6	1.5	-2
Cc1c(N=Nc2c(O)[nH]c(=O)[nH]c2=O)c(=O)n(-c2ccccc2)n1C	0.2	20%	31	-4	5.4	-0.2	4
CN1CC(C(=O)c2cccc(C(F)(F)F)c2)C(c2ccc(Cl)cc2)C1 (configuration not stated)	-1.4	-5%	1	21	-2.2	-5.6	-17
NC(=O)CC[C@@H]1NC(=O)[C@H](CO)NC(=O)c2cc([N+](=O)[O-])cc(I)c2NCCC[C@@H](C(N)=O)NC(=O)[C@H](Cc2ccc(O)cc2)NC1=O	·	?	-8	·	·	0.4	·
Cc1ccsc1C(=O)C1CCCN(Cc2ccc(O)cc2)C1 (configuration not stated)	-2.0	7%	·	-5	3.8	1.4	-19
[O-]c1ccccc1-[n+]1c(-c2ccccc2)cc(-c2ccccc2)cc1-c1ccccc1	-1.6	·	·	-5	5.3	-1.4	96*
O=C(O)Cc1cnc[nH]1	-1.1	·	-1	7	-1.9	-3.0	-7
CCOc1ccc(C2(C#N)CC[N+](C)(C)CC2)cc1	-0.4	-2%	1	7	2.2	-5.4	-7
O=C(Nc1ccc(Cl)cc1)Nc1nccs1	1.5	-7%	6	-5	1.4	-5.0	57
